Compound activity as filed in PubChem.
HNF4A DNA FP: change in binding of human HNF4 alpha to DNA; HNF4a-FITC DNA binding, fluorescence polarization, 1 h; activity change, % at 10 µM; actives 0.3% (n = 360,000); in the data active = activity change above about 30%, passing the limit was not always enough;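 also: controls were the assay level and a saturating level of protein; the project sought stronger binding though the title names inhibitors; some compounds called inactive have numbers as strong as hits; positive values seem to mean higher polarization but the record does not say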
Target sequence (P41235 whole entry, looked up): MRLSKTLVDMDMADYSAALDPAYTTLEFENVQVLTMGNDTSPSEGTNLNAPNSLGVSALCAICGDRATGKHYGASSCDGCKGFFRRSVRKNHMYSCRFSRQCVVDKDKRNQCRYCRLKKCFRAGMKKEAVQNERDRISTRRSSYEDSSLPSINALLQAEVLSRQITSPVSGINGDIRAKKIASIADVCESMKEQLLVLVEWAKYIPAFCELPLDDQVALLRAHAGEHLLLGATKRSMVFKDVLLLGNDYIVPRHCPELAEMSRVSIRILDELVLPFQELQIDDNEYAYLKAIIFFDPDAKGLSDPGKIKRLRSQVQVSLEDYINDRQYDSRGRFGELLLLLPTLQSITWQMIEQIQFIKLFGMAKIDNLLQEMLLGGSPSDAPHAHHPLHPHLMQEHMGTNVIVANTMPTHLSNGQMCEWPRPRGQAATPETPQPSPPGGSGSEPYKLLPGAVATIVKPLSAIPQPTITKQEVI
AF4-AF9 inh: blocks AF4 peptide binding to human AF9; AID 651704; AlphaScreen, biotin-AF4 peptide binding to FLAG-AF9; actives 0.47% (n = 350,000); P42568; inhibition, % at 10 µM;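 active = every replicate reaching a set inhibition limit, whatever the replicate mean, cut at about 25% in these data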;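 also: 0% = plate neutral control median and 100% = total signal loss; the record names both 10 and 1 µM as test concentration; the first replicate is given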
FGF22 binding: shifts melting point of recombinant human FGF22 | AID 651658 | Q9HCT0 | actives 1.5% (n = 340,000) | recombinant FGF22 thermal shift, SYPRO orange fluorescence; percent of sucrose octasulfate shift, DMSO zero | calls only at 9.99 µM;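 active = melting point raised past a set limit in the mean and every replicate; three in four hits are not shown here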
Target sequence (Q9HCT0 whole entry, looked up): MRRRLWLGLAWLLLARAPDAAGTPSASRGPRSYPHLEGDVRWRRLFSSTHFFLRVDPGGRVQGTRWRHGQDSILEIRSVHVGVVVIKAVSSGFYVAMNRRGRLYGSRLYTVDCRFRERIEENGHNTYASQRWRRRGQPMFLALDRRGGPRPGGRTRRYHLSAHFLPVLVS
E coli growth: E. coli growth inhibition | OD600 absorbance (no concentration beside the values) | Escherichia coli growth, OD600, 23 h; hits give low values | AID 1053175 | actives 0.21% (n = 330,000);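 active = OD600 absorbance below the run mean of sample wells minus 3.6 SD, in any replicate, cut at about 0.56 in these data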;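 also: stock transfer was 300 nL into about 60 µL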
Ecoli rRNA inh: inhibitors of bacterial rRNA selective over humanized ribosomes. E. coli WT GFP vs humanized-ribosome RFP mutants, fluorescence, 24 h; hits give low values; DMSO median 0, no signal -100. GFP signal change (wild-type ribosome), % (test concentration not listed). actives 1.6% (n = 350,000);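 active = significant combined selectivity score with lowered wild-type GFP, culture density cut under 30%, mutant RFP and density less affected; inactive = any of these conditions unmet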; also: one replicate is shown; some compounds called inactive have numbers as strong as hits
Vif A3G: HIV-1 Vif–A3G interaction blockers – biochemical, TR-FRET, GST-Vif 1-94, biotin-A3G peptide, dose response retest, primary screen (AID 1117319); TR-FRET GST-Vif / biotin-A3G peptide binding; higher % means a stronger effect; test concentration not given here; strong numbers were not always called active; one-dose inhibition, %; IC50 in µM for titrated hits; actives 0.57% (n = 260,000);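 active = above the screen mean plus three standard deviations and confirmed in dose response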;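 also: Vif residues 1-94 fused to GST binding biotinylated APOBEC3G peptide 110-148; 0% = full assay without inhibitor and 100% = GST in place of GST-Vif; retest series ran down from 100 µM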
ALR H2O2 inh: human ALR oxidase inhibition via reduced H2O2; P55789; purified ALR, DTT oxidation, H2O2 HRP-luminol luminescence; inhibition, % (no concentration beside the values); actives 3.8% (n = 290,000); AID 485317;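 active = mean and each replicate at 75% or more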;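 also: stock transfer was 7.5 nL into about 7.5 µL; 0% = neutral wells and 100% = wells with inactivated enzyme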
Target sequence (P55789 whole entry, looked up): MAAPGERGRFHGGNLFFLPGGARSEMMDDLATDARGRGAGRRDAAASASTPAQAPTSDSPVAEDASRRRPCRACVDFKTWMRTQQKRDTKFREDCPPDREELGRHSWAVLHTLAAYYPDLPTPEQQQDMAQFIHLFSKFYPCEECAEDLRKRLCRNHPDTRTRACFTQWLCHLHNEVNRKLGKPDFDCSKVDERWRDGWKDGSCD
Ecoli rRNA inh OD600: second read-out of Ecoli rRNA inh, no call of its own (marks repeat the call); OD600 change, %; measured here: OD600 growth;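 optical density of the mix in the first replicate; 0 = DMSO median and -100 = no signal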
Ecoli rRNA inh RFP: second read-out of Ecoli rRNA inh, no call of its own (marks repeat the call); RFP signal change, %; measured here: RFP humanized mutant strains;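 first replicate; 0 = DMSO median and -100 = no signal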
Numbers without * were called inactive; i = inactive; x = no result given; + = active, no number; & = joins results of further samples.

smiles,HNF4A DNA FP,AF4-AF9 inh,FGF22 binding,E coli growth,Ecoli rRNA inh,Ecoli rRNA inh OD600,Ecoli rRNA inh RFP,Vif A3G,ALR H2O2 inh
C[C@@H]1CN([C@@H](C)CO)C(=O)c2cccc(NC(=O)Nc3ccc(F)cc3)c2O[C@H]1CN(C)Cc1ccc(Cl)c(Cl)c1,x,3.9,i,x,-4,2,2.5,x,x
Cn1nc(C(=O)NCCc2ccc(Cl)cc2)c2c1-c1ccccc1S(=O)(=O)C2,4.8,0.5,i,0.68,-6,9,4.2,x,0
COc1ccc(CCNC(=O)CSc2ncc(C(=O)Nc3ccccc3)c(=O)n2C)cc1,2.8,-2.6,i,0.66,0,5,-3.6,-9%,-1
CCOc1ncccc1C(=O)NCc1cccc(OC)c1,4.4,x,x,0.72,x,x,x,-11%,11
CC1=NN(C(=O)CSCc2ccccc2)C(O)(c2ccc(F)cc2)C1 (stereo not drawn),8.8,-4.9,i,0.66,-12,-9,-2.7,-5%,-3
CCc1sc(-c2ccccc2)nc1C(=O)OC,1.4,-0.8,i,0.62,3,5,1.7,-7%,-5
CN1CCN(C(=O)c2ccc(CS(=O)(=O)c3c(Cl)cccc3Cl)o2)CC1,-1.4,2.2,i,0.72,10,8,26,1%,-53
C[C@@H]1CN([C@@H](C)CO)C(=O)c2cc(NC(=O)Cn3cnnn3)ccc2O[C@@H]1CN(C)CC1CCCCC1,x,0.0,i,x,7,1,-3.0,x,x
Cn1cnnc1SCc1ccccc1[N+](=O)[O-],-1.5,-4.6,i,0.7,8,7,-1.7,x,-6
O=C(CCS(=O)(=O)Cc1ccccc1)NCc1ccco1,3.6,x,x,0.69,x,x,x,-2%,0
CN1C(=O)c2cc(NC(=O)Cc3cccs3)ccc2OC[C@H]2O[C@@H](CC(=O)NCC3CC3)CC[C@H]21,x,-3.3,i,x,6,8,0.4,x,x
CCC(OC(=O)c1nsc(Cl)c1Cl)C(=O)NCCOC (stereo not drawn),2.2,1.3,i,0.63,16,13,1.9,33%,6
O=S(=O)(c1ccc2c(c1)OCCO2)N1CCC(c2nc3ccc(Cl)cc3[nH]2)CC1,5.0,x,x,0.62,x,x,x,6%,-3
Cc1cc(-c2ccccc2)c(C#N)c(SCC(N)=O)n1,-0.5,x,x,0.75,x,x,x,-8%,-1
COc1cc(C=NNC(=O)c2ccccc2-n2cccc2)ccc1O,4.3,2.1,i,0.65,1,3,2.7,x,99*
COc1ccc(-c2nc3ccc(C(=O)NCCCN4CCOCC4)cc3nc2-c2ccc(OC)cc2)cc1,4.3,-2.5,i,0.69,-13,-15,24,x,-1
C[C@H](CO)N1C[C@H](C)[C@@H](CN(C)Cc2ccc(Cl)c(Cl)c2)Oc2c(NC(=O)Cc3ccccc3)cccc2C1=O,0.5,4.4,i,0.75,9,-1,-2.3,x,1
Nc1nc2ccccc2n1/N=C/c1ccc2c(c1)OCO2,2.2,x,i,x,12,5,0.9,12%,-3
CC(=O)N1CCN(C(=O)c2cccc(S(=O)(=O)N3CCN(c4ccc(F)cc4)CC3)c2)CC1,-1.5,0.5,i,0.69,4,2,-0.4,3%,x
Cc1[nH]c(=O)[nH]c(=O)c1CCSSCCc1c(C)[nH]c(=O)[nH]c1=O,x,-3.2,i,x,3,6,-1.0,x,x
O=c1cc(CO)oc2ccccc12,14,2.7,i,0.7,8,7,-1.4,x,-2
CC(C)CNC(=O)c1cc([N+](=O)[O-])ccc1N1CCOCC1,3.1,3.4,i,0.74,x,x,x,4%,-4
COCC(=O)Nc1ccc2c(c1)C(=O)N(C)C[C@H](OC)[C@H](C)CN(Cc1ccccc1F)[C@H](C)CO2,x,4.5,i,x,0,8,-2.5,x,x
OC[C@@H]1[C@H](c2ccc(C#Cc3cccnc3)cc2)[C@H]2CN(Cc3ccccc3F)CCCCN12,x,10.0,i,x,-43,-74,-4.1,x,x
C[C@@H]1CN([C@@H](C)CO)C(=O)c2cc(NC(=O)CCCN(C)C)ccc2O[C@@H]1CN(C)S(=O)(=O)c1ccc(Cl)cc1,x,-5.1,i,x,-1,2,-0.9,x,x
CCCS(=O)(=O)c1ncc(Cl)c(C(=O)Nc2ccc(S(=O)(=O)Nc3ncccn3)cc2)n1,0.1,-2.7,i,0.67,-1,16,1.3,x,68
CCCCOCCCNC(=O)C[C@@H]1C[C@@]2(C(=O)OCC)CCCC=C2N(Cc2ccco2)C1=O,-1.1,-1.4,i,x,5,4,0.0,x,x
COc1cc(-c2nnc(COC(=O)C3c4ccccc4Oc4ccccc43)o2)cc(OC)c1OC,3.0,x,x,0.72,x,x,x,-8%&-3%,-9
CCOc1ccc2nc3sc(C(=O)N4CCN(C)CC4)c(N)c3cc2c1,11,x,x,0.68,x,x,x,2%,-24
Cc1cc(C(=O)COC(=O)Cc2n[nH]c(=O)c3ccccc23)c(C)n1-c1cccc(C(F)(F)F)c1,-3.5,x,x,0.66,x,x,x,-1%,x
CC(C)C#Cc1ccc([C@H]2[C@@H](CO)N3C(=O)CN(C(=O)C4CCCCC4)C[C@@H]23)cc1,x,-12,+,x,2,-10,9.9,x,x
COc1ccc(S(=O)(=O)N2CCOCC2)cc1OC,1.1,x,x,0.66,x,x,x,x,1
COc1ccccc1C(=O)NCCC(=O)N1CCN(c2ccccc2O)CC1,-1.7,0.8,i,0.65,0,-2,-0.8,2%,91*
CNc1ccc2ncc(-c3ccccc3NC(C)=O)n2n1,2.4,0.7,i,x,19,10,1.7,x,x
CC(=O)Nc1ccc(NC(=O)c2cc(S(=O)(=O)N3CCCCC3)ccc2N2CCOCC2)cc1,2.2,0.2,i,0.65,1,-2,-0.4,x,x
CSC1=NC(C)(C)C=C(/C=C/c2c(Cl)cccc2Cl)N1,-0.5,-6.4,i,x,2,11,3.2,5%,7
C[C@@H]1CN([C@@H](C)CO)C(=O)c2cc(C#C[C@@H](C)O)cnc2O[C@@H]1CN(C)C(=O)c1ccccc1,x,-2.5,i,x,5,9,-2.5,x,x
CC(C)C#Cc1cnc2c(c1)C(=O)N([C@H](C)CO)C[C@H](C)[C@H](CN(C)C(=O)Cc1ccncc1)O2,x,0.5,i,x,3,3,-3.0,x,x
C[C@H]1CN([C@@H](C)CO)C(=O)c2cc(NC(=O)c3ccncc3)ccc2O[C@H]1CN(C)C(=O)Nc1ccc2c(c1)OCO2,x,-3.2,i,x,5,1,-2.0,x,x
CN(C)S(=O)(=O)c1ccc(NS(=O)(=O)/C=C/c2ccccc2)cc1,2.2,x,x,0.68,x,x,x,-4%,-4
O=C(NCCCNC(=O)c1ccco1)c1ccco1,-3.1,x,x,0.7,x,x,x,1%,-7
C[C@@H]1CCCCO[C@@H](CN(C)CC2CCCCC2)[C@H](C)CN([C@H](C)CO)C(=O)c2cc(NC(=O)Nc3ccc(C(F)(F)F)cc3)ccc2O1,x,-4.3,i,x,-13,-10,19,x,x
CCOC(=O)C1=C(C)N=C2SCCC(=O)N2[C@@H]1c1cccs1,-1.5,2.4,i,0.63,x,x,x,1%,2
CCc1nn(C(C)C(=O)Nc2cccc(C)c2C)c(=O)c2cc3occc3n12 (stereo not drawn),-0.3,x,x,0.75,x,x,x,3%,-4
O=C(NNC(=O)c1ccccc1O)c1cc2ccccc2o1,-0.1,2.9,i,0.55,-31*,-14*,-6.4*,16µM*,5
Cc1ccc(CNC(=O)COc2ccc(S(=O)(=O)N3CCOCC3)cc2)cc1,3.0,-2.3,i,0.64,-4,-2,-4.3,-7%,-15
O=S(=O)(CS(=O)(=O)c1ccccc1Br)c1ccccc1Br,x,-1.5,i,x,5,11,5.0,x,x
O=C(CCc1nc2ccccc2c(=O)[nH]1)NCCN1C(=O)S/C(=C\c2ccc(OC(F)F)cc2)C1=O,3.5,-0.1,i,0.74,9,13,2.0,x,x
CCSc1nnc(NC(=O)CN(C)S(=O)(=O)c2ccc(F)cc2)s1,2.4,0.6,i,0.66,-8,-3,-0.4,3%,-5
Cc1ccccc1NC(=O)c1cc(S(=O)(=O)N2CCCCC2)cs1,0.9,x,x,0.66,x,x,x,-2%,-2

Remaining list, next part.
smiles,HNF4A DNA FP,AF4-AF9 inh,FGF22 binding,E coli growth,Ecoli rRNA inh,Ecoli rRNA inh OD600,Ecoli rRNA inh RFP,Vif A3G,ALR H2O2 inh
Cc1ccc(C)c(S(=O)(=O)N2CCN(C(=O)CCC(=O)NCc3ccc(Cl)cc3Cl)CC2)c1,3.2,1.1,i,0.66,-23,-55,13,x,x
O=c1ccnc(SCCc2ccccc2)[nH]1,-0.2,-1.0,i,0.68,8,-1,1.0,x,25
COCC(=O)Nc1ccc2c(c1)OC[C@@H](C)N(Cc1cc(F)ccc1F)C[C@H](C)[C@H](OC)CN(C)C2=O,x,0.5,i,x,-7,-4,3.1,x,x
O=C(Nc1nc2ccc(F)cc2s1)c1ccccn1,x,2.4,i,0.69,-47,-63,-8.6,5%,45
Cc1ccc(S(=O)(=O)NC2CC2)s1,-2.0,-1.3,i,0.67,-1,10,-3.8,-12%,-4
CCn1c(SCC(=O)Nc2ccc(C)cc2)nnc1-c1cnccn1,-0.8,-3.2,i,0.69,-3,0,0.1,x,2
CC(C)C(C(=O)C=[N+]=[N-])N1C(=O)c2ccccc2C1=O (stereo not drawn),0.3,x,x,0.73,x,x,x,0%,-5
N#CC1=C2SCN(c3ccc(F)cc3)CN2C(=O)CC1c1cccc(F)c1 (stereo not drawn),0.4,1.5,i,0.72,0,-4,1.4,7%,4
C/C=C/c1ccc2c(c1)O[C@@H](CN(C)C(=O)Nc1cc(F)ccc1F)[C@@H](C)CN([C@@H](C)CO)S2(=O)=O,x,-0.9,i,x,-8,-10,1.4,x,x
Cc1cc(O)c(/C=N/Nc2ccccc2)c(=O)o1,-1.0,x,x,x,x,x,x,28%,61
CCOc1cc(S(=O)(=O)NCc2ccccc2)c(OCC)cc1-n1cnnn1,0.7,x,x,0.66,-1,1,0.6,-3%,-3
CCN(Cc1ccccc1)C(=O)Cn1c(=O)n(CC(=O)N2CCCCC2)c(=O)c2sccc21,-0.7,2.2,i,0.69,1,0,0.9,x,-4
CC(=O)c1ccc(OC(C)C)c(Cc2c(O)nc(N)[nH]c2=O)c1,-1.1,-2.1,i,0.69,x,x,x,x,40
O=C(O)CCCN1C(=O)/C(=C\c2ccco2)SC1=S,-29,-2.9,i,0.64,2,5,11,x,x
CCCc1nc(SCC(=O)N2CCCC2)c2c(=O)n(C)c(=O)n(C)c2n1,2.9,2.9,i,0.71,5,7,-1.8,x,-3
O=C(O)c1nn(-c2cccc(C(F)(F)F)c2)ccc1=O,1.9,-3.4,i,0.63,7,13,1.1,3%,1
O=C(N[C@@H]1CC[C@H](CCNC(=O)c2ccccc2F)O[C@@H]1CO)c1ccc2c(c1)OCO2,x,-1.5,i,x,-2,3,0.3,x,x
COc1cc2c(C(=O)N(C)c3ccc(F)cc3)cn(C)c(=O)c2cc1OC,-1.5,-5.3,i,0.68,4,6,-4.6,-4%,-3
Cc1ccc(CNC(=O)c2cccnc2)cc1,-1.4,-4.9,i,0.65,11,6,-0.4,x,0
Cc1ccc(S(=O)(=O)NC2=NCCC2)cc1,2.4,x,x,0.75,x,x,x,4%,-2

Only part of the results is shown, so the mix of outcomes need not match the whole.
